eIF4H FP inh – inhibitors of RNA binding by human eIF4H; Q15056; eIF4H fluorescence polarization binding assay; inhibition, % at 35 µM; actives 0.94% (n = 290,000); AID 2012;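 active means 50% or more with normal probe brightness, or confirmed in later tests; inconclusive means above 50% with abnormal brightness, or retests that disagree; inactive means below 50% or failed in later tests; about a fifth of its hits are not listed in these tables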;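 further: calls also rest on retests at 20 µM and on dose response follow-up; 0% = protein and probe with vehicle and 100% = probe without protein; strong numbers were not always called active; many hits fall short of the cut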
MT1-MMP act inh – inhibitors of human MT1-MMP activation | AID 651647 | GFP/RFP ratio change, % at 20 µM | actives 0.061% (n = 360,000) | HT1080 RFP-PRO-GFP cells, GFP/RFP ratio fluorescence, overnight; percent of plate control window, DMSO zero;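 active means GFP/RFP ratio change of at least 30% with cell ATP level not reduced by more than half and red fluorescence within 50% of control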; further: strong numbers were not always called active
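Assay system: HT1080 RFP-PRO-GFP cells | Dosing: 20 µM single dose, 1% DMSO | Incubation: Cells overnight before dosing, compound overnight, 37 °C, 5% CO2 | Evaluation: GFP/RFP fluorescence ratio | Control set: DMSO-only wells and HT1080 RFP-L50D-GFP cell wells as references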
UUG fidelity – modulators of start codon recognition fidelity in yeast; S. cerevisiae UUG-firefly luciferase reporter, luminescence/redox ratio; AID 602363; activity score, % at 18.7 µM; actives 0.13% (n = 350,000);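 active means replicate mean at a twofold rise or more, about +100% in these data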;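 further: firefly luciferase made from a UUG start codon reports start codon fidelity; reporter light over untreated wells divided by growth signal over untreated wells; some hits fall short of that in this replicate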
CSC inhib – cancer stem cell inhibition; cancer stem cell-like cells viability, luminescence; actives 1.1% (n = 300,000); AID 2717; inhibition, % at 7.5 µM;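 active means mean at 75% or more and at least half the replicates too; inconclusive means mean and replicates disagree; tested in HMLE shEcad cells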;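 further: 0% = median of negative and 100% = median of positive control wells; the first replicate is given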
PABP FP inh – PABP-poly(A) binding inhibition; PABP-poly(A) RNA binding, fluorescence polarization; inhibition, % at 35 µM; actives 1% (n = 290,000);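 active means 50% or more with normal probe brightness, or confirmed in later tests; inconclusive means above 50% with abnormal brightness, or retests that disagree; inactive means below 50% or failed in later tests; about a fifth of its hits are not listed in these tables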;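 further: calls also rest on retests at 20 µM and on dose response follow-up; controls were probe without protein and protein plus probe with vehicle; some compounds called inactive have numbers as strong as hits; many hits fall short of the cut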
HIV Env fusion – inhibitors of HIV Env-mediated cell fusion. HeLa-JRFL Env/CEM21 cell fusion, luciferase. inhibition, % at 12.3 µM. actives 1.1% (n = 360,000). AID 651610;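 active means mean replicate inhibition score of at least 50 and every replicate individually at or above 50; inconclusive means only one of the two criteria met; inactive means mean below 50 and not all replicates reaching 50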;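 further: 0% = plate neutral controls and 100% = maraviroc near 300 nM; one replicate is shown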
Rce1 inh – blocks yeast Ras-converting enzyme; Q03530; yeast membranes, quenched prenylated peptide cleavage fluorescence; calls only; actives 0.27% (n = 290,000);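 active means fall in fluorescence gain of 50% or more versus controls, with final raw signal at or below 3038400; inconclusive means same 50% fall but final raw signal above 3038400; inactive means fall in fluorescence gain under 50%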;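 further: plate controls were neutral control wells for no effect and wells lacking membranes for full effect; tested at 10 µM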
Target sequence (Q03530 whole entry, looked up): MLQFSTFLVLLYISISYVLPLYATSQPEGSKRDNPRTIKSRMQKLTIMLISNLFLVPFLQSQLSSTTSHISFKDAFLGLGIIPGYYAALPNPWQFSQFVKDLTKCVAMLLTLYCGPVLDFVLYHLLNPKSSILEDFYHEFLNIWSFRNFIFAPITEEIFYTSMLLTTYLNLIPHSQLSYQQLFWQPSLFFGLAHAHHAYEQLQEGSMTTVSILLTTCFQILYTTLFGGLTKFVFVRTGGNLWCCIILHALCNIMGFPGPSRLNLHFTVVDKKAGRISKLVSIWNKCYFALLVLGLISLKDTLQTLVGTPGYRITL
MT1-MMP act inh RFP – second read-out of MT1-MMP act inh, no call of its own (marks repeat the call); RFP signal change, %; measured here: RFP expression control read;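 0 = vehicle wells; hits needed this value within 50% of zero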
An asterisk follows results filed as active; i = inactive; ? = inconclusive; . = not tested or not shown. These rows are one share of the data; the hit share may differ from the screen's.

SMILES	eIF4H FP inh	MT1-MMP act inh	MT1-MMP act inh RFP	UUG fidelity	CSC inhib	PABP FP inh	HIV Env fusion	Rce1 inh
CN(C)c1ccc(N2C(=NC(=O)CC3CCCCC3)SC3CS(=O)(=O)CC32)cc1 (centres undefined)	-11	2	2	-8	-12	-5	15	i
CCOC(=O)c1cc(C#N)c(Nc2ccccc2OC)nc1C(F)(F)F	-8	2	1	.	-8	-2	3	i
CC(NCc1ccccc1O)c1ccccc1 (centres undefined)	3	-1	-1	-14	-3	-15	2	i
COc1cc(OC)cc(C(=O)NC2CC3CCC(C2)N3Cc2ccco2)c1 (centres undefined)	2	7	6	-2	.	4	-10	i
Cc1ccc(-c2csc(SCC(=O)c3c(N)n(C4CC4)c(=O)[nH]c3=O)n2)cc1	.	-6	-5	-8	.	.	45	.
O=C(NOC(=O)c1ccccc1Cl)c1cccs1	3	-5	0	-8	1	2	-18	i
CN(C)C(CNC(=O)C1CC(=O)N(Cc2ccccc2)C1)c1ccccc1 (centres undefined)	.	5	6	-4	-9	.	2	i
O=C(c1ccc(F)cc1)C1CCN(C(=O)Nc2ccc(F)cc2F)CC1	-2	1	-5	-10	.	2	-9	i
COc1ccc(NC(=O)CC(C(=O)O)N2CCCCC2)cc1 (centres undefined)	1	1	1	-5	-4	-1	-28	i
CCCC[C@@]1(C2CCCC2)Cc2cc(OCC(=O)O)c(Cl)c(Cl)c2C1=O	.	5	3	-17	29	.	-42	.
CCCN(CCC)CCNc1c(N2CCN(C(=O)OCC)CC2)c(=O)c1=O	-2	-5	3	-18	-10	-6	.	i
COCCCNC(=O)CC(NS(=O)(=O)c1ccc(OC)cc1)c1ccc(OC)cc1 (centres undefined)	-4	1	1	.	-14	-6	.	i
O=C(O)CCc1ccc(-c2ccccc2)n1NC(=O)c1cccs1	-5	2	9	.	-10	3	26	i
Cc1cccc(NC(=O)c2ccc3ccccc3n2)n1	-2	7	-4	-3	-7	3	.	i
CN(C)S(=O)(=O)Oc1ccc(Cl)cc1C(=O)Nc1cccc(C(F)(F)F)c1	-17	1	4	-3	7	-6	35	.
COc1ccc(Nc2nc(NCc3ccco3)nc(N/N=C/c3ccccc3Cl)n2)cc1	-15	0	-1	.	11	-4	-12	i
Cc1cc(S(=O)(=O)Nc2ccc(C(=O)NC3CC3)cc2)ccc1F	.	4	8	-14	.	.	-12	.
COc1ccc(-c2c(C(F)(F)F)[nH]n3c(=O)cc(-c4ccccc4)nc23)cc1	2	2	0	.	92*	9	-9	i
Cn1c(C(=O)NC2CCCCC2)cc2sccc21	2	-2	1	-18	1	4	-65	i
Cc1ccccc1CN1CCC(n2nccc2NC(=O)CCCc2ccccc2)CC1	-2	-2	-2	-19	6	14	3	i
CCOc1ccc(NS(=O)(=O)c2cnc(Cl)c(Cl)c2)cc1	-1	18	-1	.	58	-6	2	i
CCCN(CCC)Cc1c(C(=O)N/N=C/c2ccoc2)nnn1-c1nonc1N	-1	1	5	-10	-9	13	10	.
O=C(N/N=C/c1cccc([N+](=O)[O-])c1O)c1cccs1	-8	6	-3	.	9	-1	-4	i
O=C(N/N=C/c1ccc(Br)s1)Nc1ccccc1	2	3	-2	-15	2	-3	-18	i
C=CCc1ccccc1OCC(=O)O	4	-3	7	.	-18	3	12	i
Cc1ccc(S(=O)(=O)N2CCC(=O)N(CCOCc3ccc(Cl)cc3)CC2)cc1	-7	4	-19	-20	-13	4	56*	i
Cc1ccccc1NC(=O)C1C2/C=C\CCCCC21 (centres undefined)	-3	0	4	.	8	-2	-56	i
Cc1csc(SCC(=O)c2cc(C)n(Cc3cccs3)c2C)n1	6	-8	-26	-80	-8	-6	.	i
Nc1cc(N)nc(SCC(=O)c2ccccc2)n1	-11	2	0	.	-8	-7	-43	.
Oc1cccc2ccc(/C=C/c3ccc(Br)s3)nc12	32	4	0	.	55	12	-80	i
Cc1ccc(NC2=C(Cl)C(=O)N(C3CCCCC3)C2=O)cc1	1	-1	2	.	-1	-9	16	i
S=C(Nc1cccnc1)Nc1cccc2cnccc12	?	-1	-5	7	16	-13	1	i
O=C(CN(C(=O)Cn1nnc(-c2cccs2)n1)c1ccc2c(c1)OCCO2)NC1CCCCC1	-3	-3	-8	-17	-16	-12	.	i
COCCCNc1nc2ccccc2nc1NS(=O)(=O)c1ccc(C)cc1C	-2	-5	-3	.	3	7	-7	i
CCN1CCN(C(c2cccs2)C(C)NC(=O)NC2CCCCC2)CC1 (centres undefined)	8	6	8	-4	-1	-6	23	i
CCN(CC(=O)Nc1c(F)cccc1F)C(=O)Cc1ccc(OC)c(S(=O)(=O)N2CCOCC2)c1	.	-1	2	.	-1	.	5	i
COc1ccc(CNC(=O)c2ccc(CS(=O)Cc3ccc(Cl)cc3)o2)cc1 (centres undefined)	-8	-2	-7	-13	-6	-8	1	i
C=CCN=C1SC(CC)C(=O)N1S(=O)(=O)c1ccc(C)cc1 (centres undefined)	4	-4	6	-11	.	-3	.	i
Cc1c(NS(=O)(=O)c2cccc(C(=O)OCC(=O)N(C)C3CCCCC3)c2)c(=O)n(-c2ccccc2)n1C	-5	1	-5	-3	-10	-18	-1	i
Cc1ccc(CNC(=O)C2CCN(S(=O)(=O)N3CCCCC3)CC2)cc1	-3	2	-1	-8	0	-3	19	i
Cc1cc(C)cc(C(=O)NC(CC(N)=O)c2ccc(N3CCC(N4CCCCC4)CC3)c([N+](=O)[O-])c2)c1 (centres undefined)	-17	1	5	-1	1	-13	4	i
Cc1ccc(C)c(N2CCN(C(=O)c3ccc(CS(=O)(=O)c4ccccc4C)o3)CC2)c1	1	-14	-17	-11	-2	2	-15	i
Cc1nn(CC(=O)N/N=C/c2ccc(F)cc2)c(C)c1[N+](=O)[O-]	-6	-1	-1	.	2	3	-8	i
Cn1c(CNC(=O)OC(C)(C)C)nnc1SCc1c(Cl)cccc1Cl	-6	0	-3	-14	-4	3	7	i
Cc1ccc2c(c1)cc(CN(CCc1ccccc1)C(=O)N1CCOCC1)c1nnnn12	4	4	6	-6	-13	8	-9	i
CNC(=O)C(=O)NCCCN1CCOCC1	-1	-2	3	.	1	4	-7	i
Cc1ccccc1C(=O)Nc1ccc(Br)cn1	2	-4	-5	-8	26	-8	.	i
COc1ccc(CN(C)C(=O)c2cnc(OC)cc2C(F)(F)F)c(OC)c1	13	1	-3	3	-2	11	-3	i
Cc1ccc2nc(SCc3nnc(-c4ccccc4[N+](=O)[O-])o3)c(C#N)cc2c1	14	1	-2	-10	.	5	.	.
CC(NC(=S)Nc1ccc(OC(F)F)c(Cl)c1)C(C)(C)C (centres undefined)	-6	0	-7	-4	-5	4	12	i
CSc1ccc(C2NC(=O)CCC2[N+](=O)[O-])cc1 (centres undefined)	-3	-2	4	-19	-5	1	-16	i
CCCn1c(SCC(=O)c2ccc3c(c2)OCCO3)n[nH]c1=O	1	1	1	5	-10	12	8	i
C/C(=N\NC(=O)c1cccc(S(=O)(=O)N2CCOCC2)c1)c1ccco1	3	-5	-4	-10	-4	-4	-11	i
COc1ccc(NC(=O)CCCc2nnc3n(C)c(=O)c4sccc4n23)cc1	1	3	5	11	0	-4	-1	i
O=C(Nc1ccc(F)c(Cl)c1)c1ccccc1	.	1	-1	-29	-3	.	-22	.
Cc1ccc(-n2c(=O)c3sccc3n(Cc3cc(=O)n4ccccc4n3)c2=O)cc1F	-5	.	.	.	-7	9	-5	i
COCc1[nH][nH]c(=O)c1C=Nc1ccc(OC(F)(F)F)cc1	-10	1	3	-11	5	-10	-1	i
C=CCN(C(=O)CSc1nc2ccsc2c(=O)n1Cc1ccccn1)c1ccccc1	8	6	3	.	-7	4	-2	.
Cn1c(=O)n(C)c2cc([N+](=O)[O-])c(N3CCN(C(=O)C(C)(C)C)CC3)cc21	-3	7	-6	.	-1	-3	7	i
COc1ccccc1N1CCN(C2CCCN(C(=O)CCN3CCCCO3)C2)CC1 (centres undefined)	-10	3	4	-18	8	-4	1	i

(continued)
SMILES	eIF4H FP inh	MT1-MMP act inh	MT1-MMP act inh RFP	UUG fidelity	CSC inhib	PABP FP inh	HIV Env fusion	Rce1 inh
CC1CCCCN1S(=O)(=O)c1cccc2nonc12 (centres undefined)	-4	0	3	-5	-8	-2	-23	i
N#Cc1c2ccc(O)cc2n2ccccc12	12	-62	-12	.	4	-5	50	i
COc1ccc2[nH]cc(C(=O)CN3CC(C)CC(C)C3)c2c1 (centres undefined)	0	-2	-1	-6	-7	-4	-7	i
O=C(NCC(=O)N1CCN(S(=O)(=O)c2ccccc2)CC1)c1ccc2ccccc2c1	.	0	3	-17	-5	.	.	.
CC(=O)c1cccc(NS(=O)(=O)c2ccc(N/C=C\C(=O)c3ccc(F)cc3)cc2)c1	-8	0	-13	-24	20	-3	.	i
CCc1ccc2c(c1)NC(=O)C2(C)Cc1ccc(C(F)(F)F)o1 (centres undefined)	.	-1	-3	-3	.	.	-11	.
COCOc1ccc(-c2ncc(OC)nc2NC(=O)c2ccsc2)cc1	.	0	2	-12	.	.	-1	.
CCn1c(Cc2ccccc2)nnc1SCC(=O)Nc1ccccc1N1CCOCC1	-1	5	3	-13	-1	0	-439	i
COc1ccc(N(C(=O)c2snc(C(N)=O)c2N)C(C(=O)NC2CCCC2)c2ccc3ncccc3c2)cc1 (centres undefined)	0	2	-3	-9	.	-3	-12	i
Nc1c(Cl)ncnc1N/N=C/c1ccnc2ccccc12	1	0	-1	-10	-37	-11	-74	i
CCOC(=O)c1cnc2ccc(C)cc2c1Sc1ccccc1	-8	1	-9	-9	19	0	.	i
CCOC(=O)c1c(CN(CC)CC)n(C)c2cc(Br)c(O)cc12	-8	1	-5	.	-6	11	0	i
CCOC(=O)NC1c2ccccc2Oc2ccccc21	-6	0	5	-7	9	1	9	i
O=C1Nc2ccccc2C12OCCCO2	2	2	3	-14	-19	-4	.	i
C=CCNC(=O)CN1C(=O)c2cccc3cccc1c23	-4	2	3	-5	2	14	-2	.
CCCc1ccc(OCCNC(=O)c2ccccc2Br)cc1	9	2	-6	2	7	1	7	i
COc1cccc(NC(=S)/C(=C(\[O-])c2ccc(OC(F)F)cc2)[n+]2ccccc2)c1	5	3	6	.	1	22	-2	i
CC(C)N(C(C)C)S(=O)(=O)c1ccc(NC(=O)c2cnccn2)cc1	-4	1	3	2	6	-8	1	i
O=C(Nc1cccc(Cl)c1N1CCOCC1)c1ccc2c(c1)OCCO2	8	-3	1	.	-5	9	16	i
COc1ccc(CCNC(=O)c2nnc(Cc3c(F)cccc3Cl)o2)cc1OC	-11	5	0	-2	0	-8	-43	i
Cc1ccc(OCCCC(=O)NCc2ccco2)cc1	-1	1	4	-4	8	1	-2	i
c1ccc(COc2ccc(OCCN3CCCCC3)cc2)cc1	3	7	1	-3	.	-10	.	i
C=CCN=c1sc(C(=O)OC)cc(=O)n1CC=C	-1	2	5	-6	-7	-12	-56	i
Cc1[nH]c(=O)[nH]c(=O)c1S(=O)(=O)N1CCC(C(=O)N2CCN(Cc3ccccc3)CC2)CC1	-3	2	4	-13	-8	-12	.	i
CC(=O)n1nc(-c2ccccc2)cc1-c1ccccc1	.	1	4	.	12	.	-72	i
O=C(CNC(=S)N(Cc1ccccc1Cl)C1CCCC1)NCCCN1CCOCC1	-7	1	1	.	-5	13	11	i

Bioassay records deposited in PubChem by several laboratories.
